# TRPV1 potentiator = HTS Assay for Compounds that Act as Potentiators of the Vanilloid Receptor 1; Transient receptor potential cation channel subfamily V member 1 (Homo sapiens), Q8NER1; TRPV1-expressing cells, Fluo-8 calcium influx, capsaicin EC20 potentiation; host cell line not named in the record; control for the full effect not named in the record; potentiation, % at 8.33 µM; 0.02% of 320,000 active; AID 540277, 2011; active means potentiation above 80%; inconclusive means 30% to 80%; inactive means below 30%; further: 0% is about no effect
# Target sequence (Q8NER1 whole entry, looked up): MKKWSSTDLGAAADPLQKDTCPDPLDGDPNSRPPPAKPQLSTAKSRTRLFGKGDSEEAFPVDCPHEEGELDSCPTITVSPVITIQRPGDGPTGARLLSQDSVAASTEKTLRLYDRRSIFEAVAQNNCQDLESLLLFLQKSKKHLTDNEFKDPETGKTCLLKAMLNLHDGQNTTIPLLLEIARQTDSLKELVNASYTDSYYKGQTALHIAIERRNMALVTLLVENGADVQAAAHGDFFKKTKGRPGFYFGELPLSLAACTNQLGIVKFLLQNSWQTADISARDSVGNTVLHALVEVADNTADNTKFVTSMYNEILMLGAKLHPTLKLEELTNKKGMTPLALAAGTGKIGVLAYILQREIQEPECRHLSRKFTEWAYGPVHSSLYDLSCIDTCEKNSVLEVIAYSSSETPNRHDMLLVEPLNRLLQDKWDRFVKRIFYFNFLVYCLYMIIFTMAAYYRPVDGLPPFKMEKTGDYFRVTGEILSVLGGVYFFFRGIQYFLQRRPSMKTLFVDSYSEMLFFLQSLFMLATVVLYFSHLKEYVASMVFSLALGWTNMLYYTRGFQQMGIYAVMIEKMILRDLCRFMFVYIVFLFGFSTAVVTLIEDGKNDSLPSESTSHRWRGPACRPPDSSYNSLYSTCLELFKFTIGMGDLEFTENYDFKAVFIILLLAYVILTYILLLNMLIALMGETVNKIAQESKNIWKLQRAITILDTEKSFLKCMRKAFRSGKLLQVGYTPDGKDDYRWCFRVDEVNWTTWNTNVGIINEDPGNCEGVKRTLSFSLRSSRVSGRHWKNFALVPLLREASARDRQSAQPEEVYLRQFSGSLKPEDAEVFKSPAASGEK
#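 TRPV1-expressing cells were cultured overnight at 35.5C and loaded with Fluo-8 calcium dye for 40 to 90 min at room temperature. After a 10 s baseline, compound was added and calcium influx was read kinetically for 3 min (ex 480/em 520 nm).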
# * = called active by the depositor; i = inactive; ? = inconclusive. Some of the compounds tested. The share of hits here may be higher or lower than overall.
# Sample of the layout (19 entries):
SMILES,TRPV1 potentiator
COc1ccc(C(=O)C2CCCN(Cc3c(C)[nH]c4ccccc34)C2)c(OC)c1 (stereo not given),9
O=C(CSc1nnc(Cc2cc(=O)[nH]c(=O)[nH]2)n1-c1ccc(Cl)cc1)N1CCc2ccccc21,-3
Cc1cccc(NC(=O)C2CCCN2S(=O)(=O)c2cccc3cccnc23)c1 (stereo not given),3
Cc1[nH][nH]c(=O)c1N=Nc1ccccc1C#N,5
O=C1CSC(=S)N1N1C(=O)c2cccc([N+](=O)[O-])c2C1=O,-8
CCC(=S)/C=C1\Sc2ccc3ccccc3c2N1CCCS(=O)(=O)O,3
CCCCc1ccc(-c2nc(NC(=O)C3C4CCC(O4)C3C(=O)O)sc2C)cc1 (stereo not given),?
Cc1ccc(-c2cc(C(=O)N/N=C/c3c(C)nn(-c4ccccc4)c3C)[nH]n2)cc1,-13
O=C(NC1CCCCC1)C(c1cc2c(cc1[N+](=O)[O-])OCO2)N1CCCCC1 (stereo not given),-1
CCCc1cc(-c2[nH]ncc2-c2ccc3c(c2)OCCCO3)c(O)cc1OC,4
CC(=O)Nc1nc2c(c3c1c(=O)oc1ccccc13)CCCCC2,22
N#CCCN/N=C(/Cc1nc2ccccc2[nH]1)c1ccc(Cl)cc1,26
CCNc1nc(=S)nc(NCc2ccccc2)[nH]1,9
COc1ccc2cc(/C=C/C(=O)c3ccco3)c(Cl)nc2c1,18
CCOC(=O)N1CCN(C(=O)CCn2c(=S)[nH]c3cc(OCC)c(OCC)cc3c2=O)CC1,-1
CC1=C(C(=O)OCC2CCCO2)C(c2ccc(C)o2)C2=C(CC(c3ccc(N(C)C)cc3)CC2=O)N1 (stereo not given),19
O=C1C(=O)N(c2nccs2)C(c2ccccc2)/C1=C(\O)c1ccc2c(c1)OCCO2 (stereo not given),0
CCn1c(SCC(=O)Nc2nc3c(s2)CCCC3)nc2c1c(=O)n(C)c(=O)n2C,0
CCCC(=O)c1ccc(O)cc1O,-11

# All compounds of this part, previewed entries included:
SMILES,TRPV1 potentiator
COc1ccc(C(=O)C2CCCN(Cc3c(C)[nH]c4ccccc34)C2)c(OC)c1 (stereo not given),9
O=C(CSc1nnc(Cc2cc(=O)[nH]c(=O)[nH]2)n1-c1ccc(Cl)cc1)N1CCc2ccccc21,-3
Cc1cccc(NC(=O)C2CCCN2S(=O)(=O)c2cccc3cccnc23)c1 (stereo not given),3
Cc1[nH][nH]c(=O)c1N=Nc1ccccc1C#N,5
O=C1CSC(=S)N1N1C(=O)c2cccc([N+](=O)[O-])c2C1=O,-8
CCC(=S)/C=C1\Sc2ccc3ccccc3c2N1CCCS(=O)(=O)O,3
CCCCc1ccc(-c2nc(NC(=O)C3C4CCC(O4)C3C(=O)O)sc2C)cc1 (stereo not given),?
Cc1ccc(-c2cc(C(=O)N/N=C/c3c(C)nn(-c4ccccc4)c3C)[nH]n2)cc1,-13
O=C(NC1CCCCC1)C(c1cc2c(cc1[N+](=O)[O-])OCO2)N1CCCCC1 (stereo not given),-1
CCCc1cc(-c2[nH]ncc2-c2ccc3c(c2)OCCCO3)c(O)cc1OC,4
CC(=O)Nc1nc2c(c3c1c(=O)oc1ccccc13)CCCCC2,22
N#CCCN/N=C(/Cc1nc2ccccc2[nH]1)c1ccc(Cl)cc1,26
CCNc1nc(=S)nc(NCc2ccccc2)[nH]1,9
COc1ccc2cc(/C=C/C(=O)c3ccco3)c(Cl)nc2c1,18
CCOC(=O)N1CCN(C(=O)CCn2c(=S)[nH]c3cc(OCC)c(OCC)cc3c2=O)CC1,-1
CC1=C(C(=O)OCC2CCCO2)C(c2ccc(C)o2)C2=C(CC(c3ccc(N(C)C)cc3)CC2=O)N1 (stereo not given),19
O=C1C(=O)N(c2nccs2)C(c2ccccc2)/C1=C(\O)c1ccc2c(c1)OCCO2 (stereo not given),0
CCn1c(SCC(=O)Nc2nc3c(s2)CCCC3)nc2c1c(=O)n(C)c(=O)n2C,0
CCCC(=O)c1ccc(O)cc1O,-11
CCN(CC)c1ccc2c(c1)CCCN2,29
CC1=CC(C)(C)N(C(=O)C(C)N2C(=O)c3ccccc3C2=O)c2c(C)cc(C)cc21 (stereo not given),-18
CCOc1ccc(NC(=O)CC)cc1,-11
O=C1NC(=O)[C@@H]2C3c4ccccc4C=CN3[C@H](C(=O)c3cccs3)[C@H]12 (stereo not given in full),16
CCCC[C@]12Cc3cc(C#N)ccc3C(O1)c1c(c3cc(F)ccc3oc1=O)O2,i
Cc1cccn2c(=O)c3cc(C#N)c(=O)n(CC4CCCO4)c3nc12 (stereo not given),-2
O=C(NC(=S)NCc1ccco1)c1cccc(Cl)c1,-9
COc1ccc(-c2nc(-c3cccc(C)c3)nc(Cl)c2C#N)cc1,15
CC(=O)C1=C(O)C(=O)N(c2cccnc2)C1c1ccc([N+](=O)[O-])cc1 (stereo not given),-10
COc1cccc(C2/C(=C(/O)c3ccncc3)C(=O)C(=O)N2CCCN(C)C)c1 (stereo not given),1
CCCNC(=O)OC[C@H]1O[C@H](CCO/N=C/C[C@@H]2C=C[C@H](OC(C)=O)[C@@H](COC(C)=O)O2)C=C[C@@H]1Oc1ccc(OC)cc1,3

# Given with tabs: two of the compounds above.
Structure	TRPV1 potentiator
CCOc1ccc(NC(=O)CC)cc1	-11
CC1=CC(C)(C)N(C(=O)C(C)N2C(=O)c3ccccc3C2=O)c2c(C)cc(C)cc21 (stereo not given)	-18

# (cont.)
SMILES,TRPV1 potentiator
COc1cc(NC(=O)c2cc(-c3cccnc3)nc3ccc(C)cc23)c(OC)cc1Cl,5
COC(=O)c1cc(N2C(=O)C3C(C2=O)C2(C)C=CC3(C)O2)ccc1Cl (stereo not given),-10
Cc1ccc(N=c2c([N+](=O)[O-])nn(-c3ccc4c(c3)OCCO4)n2O)c(Cl)c1,9
Cc1ccc(NC(NC(=O)OCCn2c([N+](=O)[O-])cnc2C)C(Cl)(Cl)Cl)cc1 (stereo not given),10
CCC(C)NC(=O)c1cc(Sc2nnc(C)s2)nc2ccccc12 (stereo not given),1
O=c1c2ccccc2ccc2ccc(P(=O)(O)O)cc12,-2
CCOC(=O)C1=C(C)N=C2SCCC(=O)N2C1c1ccc(OC)cc1 (stereo not given),0
COc1ccc(OC)c(/C=C/c2ccc3cccc(O)c3n2)c1,-19
O=C(OCC(=O)N1CCN(c2ccccc2)CC1)c1cnc(Cl)c(Cl)c1,-7
Cn1c(SCC(=O)NCc2ccc(F)cc2)nc2c([nH]c3ccccc32)c1=O,-5
Cc1cc(C)n2nc(SCc3cc(=O)oc4cc(C)c(C)cc34)nc2n1,?
Cc1nn(-c2ccccn2)c2c1C(c1c(F)cccc1Cl)C1=C(N2)c2ccccc2C1=O (stereo not given),1
O=[N+]([O-])c1cc(C(F)(F)F)ccc1N/N=C/c1cc2ccccc2nc1Cl,-1
Cc1cc(C(=O)CSc2cccc[n+]2[O-])c(C)n1-c1ccc(Br)cc1,-4
CCOc1ccccc1CNC(=O)C1CCCN(c2nc3ccccc3o2)C1 (stereo not given),-33
Cc1[nH]c(C)c(C(=O)O)c1CNC1CCCCC1C (stereo not given),-17
O=C(O)C1CCC(N2C(=O)c3c(Cl)c(Cl)c(Cl)c(Cl)c3C2=O)CC1 (stereo not given),8
O=C(O)CC1NC(=O)N(c2ccccc2)C1=O (stereo not given),17
Cc1nn2c(N)csc2nc1=O,25
Cc1ccc(-c2nnc3c4ccccc4c(C)nn23)cc1NC(=O)CN1CCOCC1,-7
Cc1ccc(S(=O)(=O)CC#CCOC(=O)c2ccc([N+](=O)[O-])cc2)cc1,30
CCOC(=O)c1sc(NC(=O)/C=C/c2cnn(C)c2C)c(C(=O)OCC)c1C,-12
CCOC(=O)c1cnc(SCC(=O)Nc2ccc(N3CCOCC3)cc2)nc1N,-5
Cc1ccc(Cl)cc1Nc1nc(-c2sc(NC(=O)c3ccccc3)nc2C)cs1,4
Cc1c(CC(=O)N[C@@H](CCCNC(N)=O)C(=O)O)c(=O)oc2cc3oc4c(c3cc12)CCCC4,9
COc1cc([N+](=O)[O-])cc(/C=N/NC(=O)CC#N)c1O,0
COc1ccc([C@]23Cc4cc(C#N)ccc4C(O2)C2=C(CC4(CCCCC4)OC2=O)O3)cc1,i
CS(=O)(=O)c1nc(-c2ccco2)cc(C(F)(F)F)n1,8
Cc1c(Cc2ccccc2)sc(N)c1C(N)=O,-1
CCOCC(=O)Nc1cc(Cl)c(OC)cc1OC,25
Cc1nn(-c2ccccc2)c(C)c1-c1cc(C(=O)N/N=C/c2cccnc2)[nH]n1,7
CCCOc1ccc(C2C(C(=O)c3ccco3)=C(O)C(=O)N2CCN2CCOCC2)cc1OC (stereo not given),-14
Cc1nccc2[nH]c(=O)c(C(=O)NC(C)CCc3ccccc3)cc12 (stereo not given),-20
COC(=O)[C@@H](NC(=O)O[C@H]1C(=O)c2ccc(OC)cc2O[C@@H]1c1ccc2c(c1)OCO2)C(C)C,7
C=CCOc1cccc(C2C(C(=O)c3ccc(C)o3)=C(O)C(=O)N2c2nnc(C)s2)c1 (stereo not given),-20
COc1ccc(-c2nnc3sc(-c4ccc(Br)o4)nn23)cc1OC,-13
CCCOc1ccc(/C(O)=C2/C(=O)C(=O)N(CCN(CC)CC)C2c2ccncc2)cc1 (stereo not given),4
Nc1c(S(=O)(=O)c2cccs2)c2nc3ccccc3nc2n1CCc1ccccc1,9
O=C(CSc1nnc(-c2ccccc2)o1)n1c2c(c3ccccc31)CCCC2,1
Cn1c(=O)c2c(nc(NCc3ccccc3)n2Cc2ccc(F)cc2)n(C)c1=O,1
O=C(CSc1nnc2c3ccccc3c3ccccc3c2n1)Nc1ccccc1,7
C#CCOCCOCCOCCNc1nc(N2CCN(C(=O)[C@H](CCC(=O)O)n3cc(C(N)CO)nn3)CC2)nc(N2CCN(C(=O)[C@H](CCC(=O)O)n3cc(C(N)CC(C)C)nn3)CC2)n1 (stereo not given in full),?
CCc1ccc(NC(=O)c2ccc3ncsc3c2)cc1,-3
CCc1cc2c(=O)c(-c3nc4ccccc4n3C)c(C)oc2c(CN2CCN(C)CC2)c1O,3
Cc1ccc2nc3c(cc(C(=O)NCc4cccnc4)c(=N)n3C(C)C)c(=O)n2c1,3
CCn1c(SCC(=O)c2c(N)n(C)c(=O)n(C)c2=O)nnc1-c1ccccc1,4
c1csc(-c2nn3c(-c4ccncc4)nnc3s2)c1,-1
Cc1cccc(NC(=O)CSc2nnc(NC(=O)c3ccc(S(=O)(=O)N4CCOCC4)cc3)s2)c1C,-7
Cc1ccc(NC(=O)Cn2cnc3sc(C(=O)NCCN(C)C)c(C)c3c2=O)cc1Cl,-5
CCOC(=O)c1[nH]c2cc3c(cc2c1NC(=O)CN1CCCCC1C)OCO3 (stereo not given),12
CN(CCOC(=O)CN1C(=O)c2ccccc2C1=O)C1=NS(=O)(=O)c2ccccc21,-3
c1ccc2c(-c3cn4ccccc4n3)c[nH]c2c1,1
O=C1[C@H](CC[C@H](O)c2ccc(F)cc2)[C@@H](c2ccc(O)cc2)N1c1ccc(F)cc1,-1
COc1cccc(-n2c([S-])c(C(=O)Nc3ccc(C(F)(F)F)cc3)[n+]3ccccc23)c1,-18
Cn1c(O)c(C=Nc2ccc(Cc3ccncc3)cc2)c(=O)n(C)c1=O,5
CCNC(=O)c1c(N)sc2c1CCCCC2,6
CCCNC(=O)c1[nH]c(C)c(C(=O)OCC)c1C,4
CCCCC(CC)Cn1c2nc3ccccc3nc2c2c(=N)oc(C)nc21 (stereo not given),-4
CC(=C\c1ccccc1)/C=C1/SC(=S)N(CCC(=O)Nc2ccccn2)C1=O,5
COc1ccc(N(CC(=O)NCCSC2CCCCC2)S(=O)(=O)c2ccccc2)c(OC)c1,16

# The results go on:
SMILES,TRPV1 potentiator
Cc1cc(C(=O)CN2C(=O)NC3(CCCc4ccccc43)C2=O)c(C)n1Cc1ccco1 (stereo not given),6
CC(=O)c1ccc(NC(=O)C(C)Sc2nnc(C3CCCCC3)o2)cc1 (stereo not given),-7
Cc1ccc(C(=O)Nc2ccc3c(c2)OCO3)cc1Cl,-9
CC1(C)S[C@@H]2[C@H](NC(=O)COc3ccccc3)C(=O)N2C1C(=O)OCc1cc2ccccc2n1S(=O)(=O)c1ccccc1 (stereo not given in full),-5
COc1ccc2c(=O)c3c(=O)n(-c4ccc(C)cc4)c(-c4ccccc4)nc3oc2c1,8
Cn1c(=O)[nH]c(=O)c2c1nc(N1CCN(c3cccc(Cl)c3)CC1)n2CCCc1ccccc1,8
CC(C)(C)C(=O)/C(C#N)=c1\s/c(=C\c2ccncc2)c(=O)n1CCCN1CCOCC1,15
O=[N+]([O-])c1cc(C=Nc2cccc3c(O)cccc23)ccc1Cl,-5
CCC(CC)C(=O)Nc1ccncc1,-5
O=C(CCCCC(=O)N1CCN(c2ccccc2)CC1)N1CCN(c2ccccc2)CC1,-10
O=C(O)C1C2C=CC(O2)C1C(=O)NCCCn1ccnc1 (stereo not given),-14
CCCn1c(=O)c(C(=O)Nc2cnccn2)c(O)c2ccccc21,19
N#Cc1c(-c2ccccc2)cc(-c2ccco2)c(C#N)c1N,8
COC(=O)c1sccc1-c1ccc(C(N)=O)o1,6
CCC(NC(=S)NC1CCCCC1)c1ccc(C)cc1 (stereo not given),-17
Cc1ccc(OCc2nn3c(-c4n[nH]c5c4CCC5)nnc3s2)cc1,?
CC(C)Nc1ccc(Cl)cc1[N+](=O)[O-],-2
Cc1ccc(NCN2C(=O)C3C4CCC(C4)C3C2=O)cc1 (stereo not given),3
CCOC(=O)/C=c1\s/c(=C\c2sccc2C)c(=O)n1CC(=O)NCc1ccc(C)cc1,3
Cc1ccc(C(=O)C(NC(=O)c2ccco2)Nc2sc3c(c2C(N)=O)CCCC3)cc1 (stereo not given),5
COc1ccc2[nH]c(=O)c(CN(Cc3cccs3)C(=S)Nc3ccccc3)cc2c1,6
c1cncc(CNc2ncnc3ccc(-c4ccoc4)cc23)c1,-12
CNCCCNCc1ccc(SC)cc1,4
CC(C)(Oc1ccc(-c2ccco2)cc1)C(=O)O,4
